# Screening data from PubChem BioAssay.
# ALR H2O2 inh: human ALR oxidase inhibition via reduced H2O2; P55789; purified ALR, DTT oxidation, H2O2 HRP-luminol luminescence; inhibition, % (concentration not given with the values); hit rate 3.8% among 290,000;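 active = mean and each replicate at 75% or more; inconclusive = only one of the two met; inactive = neither met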;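 also: stock transfer was 7.5 nL into about 7.5 µL; 0% = neutral wells and 100% = wells with inactivated enzyme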
# Target sequence (P55789 whole entry, looked up): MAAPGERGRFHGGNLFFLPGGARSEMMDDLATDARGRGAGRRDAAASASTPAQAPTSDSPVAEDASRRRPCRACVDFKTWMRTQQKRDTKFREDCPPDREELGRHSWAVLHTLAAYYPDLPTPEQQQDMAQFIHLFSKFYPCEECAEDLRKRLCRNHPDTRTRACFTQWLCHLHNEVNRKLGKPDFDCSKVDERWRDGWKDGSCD
# T cruzi repl: blocks replication of Trypanosoma cruzi; T. cruzi beta-gal in NIH3T3, luminescence, 90 h; inhibition, % (test concentration not listed); hit rate 1.4% among 300,000;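 active = mean inhibition across valid replicates above about 55%, limit read from the data; inconclusive = mean below that limit but half or more replicates reach it; inactive = mean below it, under half of replicates reach it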;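 also: signal also drops with host cell toxicity which is not excluded here; 0% = plate median of DMSO wells and 100% = zero luminescence signal; higher percent means less beta-gal luminescence so fewer parasites; stock transfer was 50 nL into about 50 µL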
# Calb FLC: affects C. albicans growth with fluconazole. C. albicans CaCi-2 (fluconazole-resistant clinical isolate) + fluconazole, Alamar Blue growth, 48 h. growth inhibition, % (test concentration not listed). hit rate 0.57% among 300,000;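 active = most replicates above 75%; inconclusive = exactly half above 75%; inactive = most below 75%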;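 also: all wells also contain fluconazole at 8 µg/ml as a sub-toxic cotreatment; 0% = median of DMSO wells and 100% = median of geldanamycin control wells; wells of about 8 µL received 7.5 nL stock; the first replicate is given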
# MLL AF4-AF9 inh: blocks AF4 peptide binding to human AF9; P42568; AlphaScreen, biotin-AF4 peptide binding to FLAG-AF9; inhibition, % at 10 µM; hit rate 0.47% among 350,000; AID 651704;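 active = every replicate reaching a set inhibition limit, whatever the replicate mean, cut at about 25% in these data; inconclusive = mean inhibition reaches that limit but some replicates miss it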;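 also: 0% = plate neutral control median and 100% = total signal loss; the record names both 10 and 1 µM as test concentration; the first replicate is given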
# Target sequence (P42568 whole entry, looked up): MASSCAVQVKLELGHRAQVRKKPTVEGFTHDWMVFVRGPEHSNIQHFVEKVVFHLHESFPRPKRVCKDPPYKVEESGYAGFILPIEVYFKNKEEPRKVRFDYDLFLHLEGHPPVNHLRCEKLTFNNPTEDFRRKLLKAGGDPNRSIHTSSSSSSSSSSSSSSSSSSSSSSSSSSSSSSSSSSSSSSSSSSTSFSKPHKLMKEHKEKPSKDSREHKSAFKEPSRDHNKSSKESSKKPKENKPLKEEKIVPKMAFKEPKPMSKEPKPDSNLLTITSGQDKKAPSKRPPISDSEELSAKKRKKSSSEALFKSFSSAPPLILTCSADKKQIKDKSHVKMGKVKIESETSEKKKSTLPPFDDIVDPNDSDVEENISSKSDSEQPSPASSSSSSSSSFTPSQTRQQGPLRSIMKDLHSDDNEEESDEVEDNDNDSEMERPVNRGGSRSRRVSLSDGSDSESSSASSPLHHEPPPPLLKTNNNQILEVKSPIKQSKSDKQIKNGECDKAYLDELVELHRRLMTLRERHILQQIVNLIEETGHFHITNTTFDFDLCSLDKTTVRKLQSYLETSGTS
# rRNA inh HTS: selective bacterial rRNA inhibition in E. coli | GFP signal change (wild-type ribosome), % (test concentration not listed) | E. coli WT GFP vs humanized-ribosome RFP mutants, fluorescence, 24 h; hits give low values; DMSO median 0, no signal -100 | AID 720706 | hit rate 1.6% among 350,000;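 active = significant combined selectivity score with lowered wild-type GFP, culture density cut under 30%, mutant RFP and density less affected; inactive = any of these conditions unmet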; also: one replicate is shown; some compounds called inactive have numbers as strong as hits
# FGF22 binding: shifts melting point of recombinant human FGF22; recombinant FGF22 thermal shift, SYPRO orange fluorescence; percent of sucrose octasulfate shift, DMSO zero; calls only at 9.99 µM; Q9HCT0; hit rate 1.5% among 340,000;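 active = melting point raised past a set limit in the mean and every replicate; inconclusive = no clear call; three in four hits are not shown here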
# Target sequence (Q9HCT0 whole entry, looked up): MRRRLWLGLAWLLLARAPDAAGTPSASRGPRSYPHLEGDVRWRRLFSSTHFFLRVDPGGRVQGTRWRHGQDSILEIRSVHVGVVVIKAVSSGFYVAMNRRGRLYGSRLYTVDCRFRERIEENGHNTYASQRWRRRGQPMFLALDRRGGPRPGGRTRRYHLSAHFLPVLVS
# RanGTP-Impb inh: inhibitors of RanGTP-importin-beta interaction, primary screen, biochemical, FRET, CFP-Ran, YFP-importin-beta, homogeneous | cell-free CFP-Ran/YFP-importin-beta FRET ratio | inhibition, % (concentration not given with the values) | hit rate 1.1% among 300,000 | AID 2216;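 active = most replicates above 15%; inconclusive = exactly half above 15%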;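 also: 0% = DMSO wells and 100% = Ran loaded with GDP instead of GTP; wells of about 40 µL received 100 nL stock; the first replicate is given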
# Beta apoptosis: blocks beta cell apoptosis. hit rate 0.8% among 300,000. INS-1E cytokine-induced death, ATP luminescence, 48 h; percent of positive-control rescue, neutral wells zero. protection from apoptosis, % (test concentration not listed);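 active = all replicates at 75% or more, or half of them and the mean; inconclusive = half reach 75% but not the mean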;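 also: 0% = cytokine-treated negative control wells and 100% = positive control rescue; higher means more ATP so stronger rescue from cytokine killing; wells of about 40 µL received 100 nL stock; the first replicate is given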
# rRNA inh HTS OD600: second read-out of rRNA inh HTS, no call of its own (marks repeat the call); OD600 change, %; measured here: OD600 growth;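 optical density of the mix in the first replicate; 0 = DMSO median and -100 = no signal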
# rRNA inh HTS RFP: second read-out of rRNA inh HTS, no call of its own (marks repeat the call); RFP signal change, %; measured here: RFP humanized mutant strains;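 first replicate; 0 = DMSO median and -100 = no signal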
# * hit, by the source's call; i = inactive; ? = inconclusive; . = no result given; & = joins results of further samples. Some of the compounds tested (hit frequency here may not be typical).
# Each structure is followed by: FGF22 binding	rRNA inh HTS	MLL AF4-AF9 inh	T cruzi repl	Beta apoptosis	Calb FLC	ALR H2O2 inh	rRNA inh HTS OD600	rRNA inh HTS RFP	RanGTP-Impb inh
> CCCc1cc(=O)oc2cc(C)cc(OCC(=O)Nc3ccc(CN4CCOCC4)cc3)c12
 : i	-8	0.5	8	3	-23	-8	-26	11	-0.2
> CCOC(=O)N1CCN(C(=O)c2cc(-c3ccncc3)nc3ccccc23)CC1
 : .	3	-3.1	26	9	8	-33	6	0.9	?
> Fc1ccccc1-c1nc(-c2ccc(-c3nn[nH]n3)cc2)no1
 : .	-37	-6.6	.	-1	.	15	-42	-12	.
> [O-][n+]1onc2c3ccnnc3ccc21
 : .	.	.	.	6	16	-2	.	.	-1.0
> COc1ccccc1OCCNC(=O)c1ccc2c(c1)CCC2
 : i	-9	-4.2	-7	-5	3	.	-24	2.2	0.3
> COc1ccc(NC(=O)c2cnn(-c3ccccc3)c2C)cc1
 : .	1	-0.9	-8	-3	-7	-5	-5	-4.1	5.6
> O=C(CC1OC(=O)c2ccccc21)Nc1cc(S(=O)(=O)N2CCOCC2)ccc1OCC(F)(F)F (stereo not drawn)
 : i	-1	0.1	3	.	-2	3	14	-1.0	0.6
> O=C(CN1CCOCC1)Nc1ccc(OCc2ccccc2)cc1
 : .	.	.	1	5	7	51	.	.	8.2
> CO/N=C\CC(=O)Nc1ccc(F)cc1
 : .	.	.	-19	-7	3	-12	.	.	-1.4
> CC1(OC(=O)C2CCCC2)C(=O)C=C2C=C(c3ccsc3)N(CCc3c[nH]c4ccccc34)C=C2C1=O (stereo not drawn)
 : .	.	.	15	-3	6	-49	.	.	-5.6
> N#Cc1ccc(C(=O)Nc2cc(-c3ccc(F)cc3)nn2-c2ccccc2)cc1
 : i	11	-1.3	.	13	.	.	22	-8.5	.
> O=C(NCC1CCCO1)c1ccc2c(=O)n(-c3ccc(F)cc3)c(=S)[nH]c2c1 (stereo not drawn)
 : i	20	-2.1	-2	-1	-15	-15	28	2.6	-2.2
> COc1ccc(C2C(C(=O)O)CC(=O)N2C2CCCCC2)cc1 (stereo not drawn)
 : i	8	-0.4	-20	3	26	-1	-2	-0.4	3.0
> CCOC(=O)Nc1cccc(NC(=O)c2ccccc2F)c1
 : i	-25	-1.9	-3	5	6	15	-22	-12	2.4
> O=C(NNc1c(F)c(F)cc(F)c1F)c1ccc(Cl)nc1
 : i	1	-0.6	-8	-2	1	96*	5	-1.2	0.8
> O=C(c1ccc(F)cc1F)N1CCN(S(=O)(=O)c2ccc3c(c2)OCCO3)CC1
 : i	-6	-0.4	.	-6	.	-2	-16	-2.5	.
> CCCC(C)C(=O)Nc1ncc(S(=O)(=O)c2ccc([N+](=O)[O-])cc2)s1 (stereo not drawn)
 : i	2	0.5	63*	.	5	-7	4	-2.0	-3.2
> NC(=O)C1(NC(=O)[C@@H]2CC3(CC(c4cccc(NC(=O)[C@@H]5CCC(=O)N5)c4)=NO3)CN2C(=O)c2ccccc2)CC1 (stereo partly drawn)
 : i	4	-0.2	-24	-4	-6	-9	8	-0.7	-0.6
> CCOC(=O)CC1Sc2ccccc2NC1=O (stereo not drawn)
 : i	-1	1.2	-13	-2	1	-40	-1	-9.1	3.2
> CCN(CC)C(=O)Oc1nnc(SC(C)C)n1-c1ccc(Cl)cc1
 : i	-29*	2.0	19	3	6	-6	17*	-5.3*	-0.6
> O=C(CNc1c(Br)cc(Br)cc1Br)NN=C1CCCCC1
 : .	.	.	-13	-2	-12	-1	.	.	-1.0
> CCO[C@@H]1OC(C(=O)N2CCN(Cc3ccccc3)CC2)=C[C@H](c2ccccc2)[C@H]1CCCO
 : i	-14	2.0&-0.7	13	-5	-1	.	-10	19	-2.4
> CC(=O)c1ccc(NC(=O)c2noc3c2CCC3)cc1
 : i	-1	6.0	-12	-6	8	-8	5	-2.3	1.1
> CCCCn1c2ccc(F)cc2c2nnc(SCCN3CCCCC3)nc21
 : i	-3	2.4	59*	.	10	.	1	-2.1	1.1
> Cc1ccc(NC(=O)CSc2nnc3n2CCCCC3)cc1
 : .	.	.	0	-4	5	.	.	.	-2.6
> CC(=O)Nc1ccc(S(=O)(=O)Nc2nc3ccccc3nc2-n2ccc(=NC(=O)c3ccc(F)cc3)cc2)cc1
 : i	77	-1.3	-4	1	16	.	18	7.4	-0.3
> S=C(Nc1ccccc1Cl)N1CCOCC1
 : .	.	.	-9	-2	0	-6	.	.	3.9
> CCN1CCN(C(CC(C)C)c2nnnn2CS(=O)(=O)c2ccc(C)cc2)CC1 (stereo not drawn)
 : i	7	3.2	-61	1	-14	-3	9	1.3	1.6
> Cc1cccc(C(=O)OCC(=O)NCC(C)C)c1O
 : i	2	-3.6	-7	.	17	8	3	-3.1	-0.4
> COc1ccc(N2CCN(C(=O)CNC(=O)c3cccc(Br)c3)CC2)cc1
 : i	2	-12	2	5	-3	28	3	1.3	-0.8
> CCOC(=O)[C@@H]1[C@H]2COc3ccc(Br)cc3[C@@H]2N2C(=O)N(c3ccccc3)C(=O)[C@]12C
 : i	-6	2.0	-5	-10	-11	-16	-11	19	1.3
> Cc1ccsc1/C=N/NC(=O)C1CC(=O)N(c2ccc(F)cc2)C1 (stereo not drawn)
 : i	3	.	0	.	-2	3	-1	4.5	-4.1
> Cc1cccc(NC(=O)/C(C#N)=C/c2ccc(F)cc2)n1
 : i	-17	0.0	-11	-10	3	26	-26	-2.4	-0.3
> CCOC(=O)c1nn(-c2ccc(Cl)cc2)c(C)cc1=O
 : i	21	-20	-6	-2	2	-6	18	3.0	-0.8
> CN(C)c1ccc(CC2C(=O)Nc3ccccc32)cc1 (stereo not drawn)
 : i	-1	1.8	-19	-6	10	98*	3	2.3	2.6
> CCOc1cc(N2CCOCC2)c(OCC)cc1NC(=O)CN1C(=O)NC(C)(C2CC2)C1=O (stereo not drawn)
 : i	3	0.1	-5	0	3	-16	0	-8.6	1.1
> C[C@@H]1CN([C@@H](C)CO)C(=O)c2cccc(NS(=O)(=O)c3cccs3)c2O[C@H]1CN(C)Cc1ccc(C(F)(F)F)cc1
 : i	-6&10	1.8	.	-5	.	-3	-7&8	-1.6&1.2	.
> c1ccc(CCNc2nnnn2-c2ccccc2)cc1
 : .	.	.	-23	-2	-5	-1	.	.	3.9
> Cc1noc(C)c1CSc1nnc2ccccn12
 : .	.	.	-11	3	-20	-1	.	.	?
> CC(C)(C)c1ccc(C(=O)N2CCN(CCNC(=O)C(=O)Nc3ccc(F)cc3)CC2)cc1
 : i	3	-2.6	1	.	-4	9	-2	-1.0	1.8
> CN1c2ccccc2-c2nc3ccccc3n2C1c1ccccn1 (stereo not drawn)
 : .	.	.	-18	-5	-5	-1	.	.	9.3
> CC(NC(=O)c1cccs1)C(=O)NC1=NCCS1 (stereo not drawn)
 : i	8	10	6	2	-12	-3	1	-8.8	3.1
> CC(Oc1ccc2c3c(c(=O)oc2c1)CCCC3)C(=O)NC1CC(C)(C)NC(C)(C)C1 (stereo not drawn)
 : i	4	2.5	27	.	1	-2	13	4.2	-1.2
> CCOc1cccc2cc(-c3csc(NC(=O)CCC(=O)N4CCC(C)CC4)n3)c(=O)oc12
 : .	.	.	-16	-3	-3	0	.	.	?
> Cc1ccc(-c2csc(NC(=O)c3cccc(C)c3)c2C(=O)O)cc1
 : i	-38*	-2.3	-17	-1	2	14	-26*	-4.6*	-0.2
> COCCNC(=O)CN(C(=O)CCC(=O)Nc1nccs1)c1ccccc1OC
 : .	.	.	-11	-1	2	-8	.	.	0.5
> COC(=O)c1cc(CN2CCN(c3ccccc3)CC2)ccc1O
 : i	-9	9.3	1	-4	-1	98*	-6	1.5	-5.9
> CCN(CC)CCN(C)Cc1nc(C(c2ccccc2)c2ccccc2)no1
 : i	-1	4.0	20	0	0	-6	9	-6.0	2.5
> Cn1c(=O)[nH]c(=O)c2c1nc(N1CCCCCC1)n2CCCSc1nnnn1-c1ccccc1
 : .	.	.	7	8	-8	1	.	.	-3.5
> NC(N)=N/N=C/c1ccccc1
 : .	.	.	62*	.	-2	5	.	.	-2.7

# Carrying on.
# Each structure is followed by: FGF22 binding	rRNA inh HTS	MLL AF4-AF9 inh	T cruzi repl	Beta apoptosis	Calb FLC	ALR H2O2 inh	rRNA inh HTS OD600	rRNA inh HTS RFP	RanGTP-Impb inh
> Cc1ccc(C(=O)OCC(=O)Nc2ccccc2C(F)(F)F)cc1S(=O)(=O)N1CCOCC1
 : .	.	.	-2	5	0	-1	.	.	-4.6
> C/C(=N\NC(=O)COc1cc(C)cc(C)c1)c1ccc(N2CCOCC2)cc1
 : i	4	1.6	-1	-7	-16	.	-1	0.3	4.1
> C#CCOc1ccccc1C(N)=O
 : i	1	-6.5	-8	2	3	-17	4	1.2	-0.9
> CC1(C)Cc2cccc(OCC(=O)OCc3nnc(-c4ccccc4)o3)c2O1
 : i	6	-1.0	.	1	.	.	4	1.1	.
> O=C(c1ccc(NS(=O)(=O)c2ccc(F)cc2)cc1)N1CCN(c2ccccc2O)CC1
 : i	-14	1.0	7	4	49	9	-20	3.7	3.5
> COc1ccccc1C(=O)Nc1ccc2nc3n(c(=O)c2c1)CCCC3
 : i	7	-3.1	-1	3	-6	0	1	-2.7	5.2
> CC(C)N1CC(C(=O)Nc2cc(Cl)cc(Cl)c2)CC1=O (stereo not drawn)
 : i	6	-0.7	7	0	-12	-10	5	-2.3	1.1
> Cc1nnc(SCc2ccccc2Cl)n(N)c1=O
 : i	9	-1.0	-8	-1	-1	23	-2	0.5	3.4
> CCC1(CC)NC(=O)N(CC(=O)OCC(=O)NC(=O)c2ccccc2OC)C1=O
 : i	12	-0.2	-5	0	0	-2	14	2.9	0.3
> O=C(CN1C(=O)CSc2ncccc21)Nc1cccc(Cl)c1
 : i	-4	-4.9	2	-6	-2	4	-8	0.7	-2.0
> O=C(CN1CCCN(S(=O)(=O)c2ccc(F)cc2)CC1)Nc1cccc(F)c1
 : i	-2	-4.4	-2	-4	6	1	-5	2.3	0.9
> Cc1ccc(OCC(=O)Nc2ccc3oc(=O)ccc3c2)cc1C
 : i	10	-0.5	-2	-5	-2	-7	19	-0.4	-0.6
> Nc1c(C(=O)Nc2ccc(Cl)cc2)oc2ccccc12
 : i	10	3.7	-7	.	-4	-3	12	-1.8	0.3
> CN(C)CCC1c2ccc(Cl)cc2CCc2cccnc21 (stereo not drawn) (tested in a mixture with another compound)
 : i	3	1.6	7	-1	10	-1	-7	0.6	?
> c1csc(-c2ncc3ccccn23)c1
 : .	.	.	-2	.	-11	-22	.	.	1.9
> O=C(O)CCCCCCCCc1cn(CC2CCCCC2)nn1
 : i	-21*	0.5	-3	1	0	-12	-15*	-1.0*	-3.0
> CC1CCCN(C2=NC(=O)/C(=C/c3cn(-c4ccccc4)nc3-c3cccc(S(=O)(=O)N(C)C)c3)S2)C1 (stereo not drawn)
 : .	.	.	41	18	7	-1	.	.	4.9
